# Mtb growth: M. tuberculosis H37Rv growth inhibitors, H37Rv strain (AID 1626). 220,000 compounds, 0.95% hits. one-dose inhibition, % at 10 µM; IC50 in µM for titrated hits. M. tuberculosis H37Rv growth inhibition; higher % means a stronger effect;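 active means confirmed in a dose series; inconclusive means inhibition above 80% but not taken into the dose series; inactive means below 80% or under 30% at every dose of the series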;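 further: bacteria incubated seven days before Alamar blue readout; 0% = bacteria only wells and 100% = bacteria with antibiotic wells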
# RecA intein inh: Mtb RecA intein splicing inhibition; AID 2221; P9WHJ3; cell-free RecA intein splicing, fluorescence; inhibition, %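 (about 9 µM by stock and volumes)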; 290,000 compounds, 0.75% hits; in the data active means inhibition above about 30%; inconclusive means no clear call, values can overlap the other calls;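 further: 0% = vehicle wells and 100% = reference inhibitor control wells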
# Target sequence (P9WHJ3 whole entry, looked up): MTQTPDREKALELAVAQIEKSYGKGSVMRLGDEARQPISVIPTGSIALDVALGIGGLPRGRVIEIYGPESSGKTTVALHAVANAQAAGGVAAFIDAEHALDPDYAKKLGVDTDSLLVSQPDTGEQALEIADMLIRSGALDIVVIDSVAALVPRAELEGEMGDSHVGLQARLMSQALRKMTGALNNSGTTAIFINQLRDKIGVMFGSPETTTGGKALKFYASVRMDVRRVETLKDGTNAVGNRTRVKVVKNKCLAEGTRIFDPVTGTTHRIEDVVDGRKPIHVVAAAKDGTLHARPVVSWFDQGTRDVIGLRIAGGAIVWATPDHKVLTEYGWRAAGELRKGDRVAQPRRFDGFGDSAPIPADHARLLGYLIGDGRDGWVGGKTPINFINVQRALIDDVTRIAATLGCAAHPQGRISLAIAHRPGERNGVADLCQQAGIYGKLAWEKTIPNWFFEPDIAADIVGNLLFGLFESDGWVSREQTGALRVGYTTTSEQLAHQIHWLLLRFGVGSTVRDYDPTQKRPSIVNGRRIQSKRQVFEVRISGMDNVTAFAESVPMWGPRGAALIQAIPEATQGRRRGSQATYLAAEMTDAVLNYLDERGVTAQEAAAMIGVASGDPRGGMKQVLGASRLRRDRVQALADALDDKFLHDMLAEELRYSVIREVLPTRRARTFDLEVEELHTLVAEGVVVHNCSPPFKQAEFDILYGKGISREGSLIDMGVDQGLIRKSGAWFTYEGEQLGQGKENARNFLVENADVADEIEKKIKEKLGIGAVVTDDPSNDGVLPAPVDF
# Mtb betalactam: beta-lactam sensitization of Mtb H37Rv. M. tuberculosis H37Rv growth with meropenem, percent inhibition; hits of this screen are not shown here. inhibition, % at 25 µM. 330,000 compounds, 0.27% hits. AID 434955;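 active means about 74% or more and at least 40 points above the plate without the antibiotic, then above 30% in a dose series; inconclusive means first-round hits that could not be retested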;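 further: growth measured after seven days incubation then overnight dye step; 0% = bacteria only wells and 100% = bacteria with antibiotic; twin plates without the antibiotic show which effects depend on it; some results filed as inactive read as strong as hits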
# YopH inh: inhibitors of Yersinia enterocolitica YopH tyrosine phosphatase | fluorescence Ex485/Em525 | inhibition, %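 (about 10 µM by stock and volumes)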 | 140,000 compounds, 0.16% hits;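 active means inhibition of 50% or more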;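 further: controls were vehicle for no effect and minimum signal wells for full effect; inactives centre near -20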
# Arbovirus inh: blocks arbovirus infection; arbovirus infection cell-based antiviral screen; inhibition, % at 10 µM; 200,000 compounds, 0.37% hits; AID 1251;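 active means inhibition from about 30%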;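 further: bluetongue infection of BSR cells; cell survival read as ATP light after 72 h; 0% = infected wells without compound and 100% = uninfected wells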
# Arbovirus inh repeat: second read-out of Arbovirus inh, no call of its own (marks repeat the call); inhibition, %; measured here: 10K subset replicate screen; many hits read low in the repeat;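 first of two repeat runs on a subset; 0% = infected and 100% = uninfected wells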
# Active calls of the source: *; ? = inconclusive; . = not tested or not shown. These rows are one share of the data; the hit share may differ from the screen's.
# Start of the listing, in advance (6 entries):
SMILES,Mtb growth,RecA intein inh,Mtb betalactam,YopH inh,Arbovirus inh,others
O=C(NCC(c1ccco1)N1CCN(c2ccc(F)cc2)CC1)c1cccs1 (stereo unspecified),.,3.9,-13,.,.,
CCN(CC)Cc1c(C(=O)N/N=C/c2ccc(OCc3ccccc3C)cc2)nnn1-c1nonc1N,.,1.6,9,.,.,
O=C1CCC(c2ccccc2)=NN1Cc1c(F)cccc1Cl,6%,1.8,4,.,5,
COc1ccc2c(C)cc(SCC#N)nc2c1,-8%,-1.9,-2,-23,9,
CCN(CC)c1ccc2c(-c3ccc(S(=O)(=O)O)cc3S(=O)(=O)[O-])c3ccc(=[N+](CC)CC)cc-3oc2c1,.,1.1,-20,.,.,
CCOC(=O)c1c(C)n(C)c2ccc(O)c(CN3CCC(C)CC3)c12,6%,-2.2,-14,-11,4,

# The listing, repeating the preview:
SMILES,Mtb growth,RecA intein inh,Mtb betalactam,YopH inh,Arbovirus inh,others
O=C(NCC(c1ccco1)N1CCN(c2ccc(F)cc2)CC1)c1cccs1 (stereo unspecified),.,3.9,-13,.,.,
CCN(CC)Cc1c(C(=O)N/N=C/c2ccc(OCc3ccccc3C)cc2)nnn1-c1nonc1N,.,1.6,9,.,.,
O=C1CCC(c2ccccc2)=NN1Cc1c(F)cccc1Cl,6%,1.8,4,.,5,
COc1ccc2c(C)cc(SCC#N)nc2c1,-8%,-1.9,-2,-23,9,
CCN(CC)c1ccc2c(-c3ccc(S(=O)(=O)O)cc3S(=O)(=O)[O-])c3ccc(=[N+](CC)CC)cc-3oc2c1,.,1.1,-20,.,.,
CCOC(=O)c1c(C)n(C)c2ccc(O)c(CN3CCC(C)CC3)c12,6%,-2.2,-14,-11,4,
CCC(=O)Nc1ccc(C(=O)CSc2nc(N)cc(N)n2)cc1,7%,3.1,-12,.,.,
O=S(=O)(c1cccc(C(F)(F)F)c1)c1ccc(O)cn1,.,-1.1,-4,.,.,
COc1ccc(C(=O)n2cnc3ccccc32)cc1[N+](=O)[O-],.,-2.3,0,.,.,
CCOC(=O)N1CCC(NC(=O)Cn2cc3c(n2)CCCC3)CC1,-5%,0.1,3,-33,12,Arbovirus inh repeat=2
Nc1ccccc1C(=O)N(Cc1ccccc1)Cc1ccccc1,-1%,6.5,1,-26,-16,
O=C(c1cc(-c2ccccc2Cl)on1)N1CCN(C(=O)c2ccco2)CC1,1%,-0.6,-6,-4,-4,
COc1ccccc1CNC(=O)CCCOc1cc(=O)n(C)c2ccccc12,-8%,.,2,-8,0,
COc1ccc(CN(Cc2cc3cc4c(cc3[nH]c2=O)OCO4)C(=O)NC2CCCCC2)cc1,11%,8.0,38,-27,-27,
COc1cccc(CN(CC(=O)NC2CCCCC2)C(=O)c2csnn2)c1,.,-3.6,8,.,.,
CCOc1ccc2c(c1)c1nnc(SCC(=O)NC3CC3)nc1n2C,.,7.0,4,.,.,
Cc1ccc(N(C)C(=O)c2cc(S(=O)(=O)N3CCCC3)cn2C)cc1,.,-0.4,-7,.,.,
CCOc1ccc(OCCN2C(=O)NC(Cc3c[nH]c4ccccc34)C2=O)cc1 (stereo unspecified),-8%,-4.1,-22,-16,7,
O=C(CN(Cc1ccccc1)S(=O)(=O)c1ccccc1)N/N=C/c1ccc([N+](=O)[O-])cc1,-6%,-0.5,0,-23,-12,
CCCCN(C)CCCNC(=O)c1cc(=O)[nH]c2ccc(S(=O)(=O)N3CCCCC3C)cc12 (stereo unspecified),-3%,0.3,3,.,-1,
COc1ccc2c(c1)C(C)CC(C)(C)N2C(=O)Nc1ccccc1 (stereo unspecified),.,5.3,-2,.,.,
O=c1cc(CN2CCOCC2)c2c(ccc3ccccc32)o1,3%,-3.5,4,-27,-3,
COc1ccc(CC(=O)n2[nH]c(=O)c3ccccc3c2=O)cc1OC,0%,0.0,-7,.,.,
COc1ccc(N2C3=C(CC4=C2CCCC4=O)C(=O)CCC3)cc1,1%,-161,31,1,-7,
COc1cccc(CCC(=O)N2CCC(n3nccc3NC(=O)CC(C)C)CC2)c1,.,-1.2,2,.,.,
# (continued)
SMILES,Mtb growth,RecA intein inh,Mtb betalactam,YopH inh,Arbovirus inh,others
C=CCn1c(SCC(=O)c2c(N)n(CCC)c(=O)n(C)c2=O)nnc1-c1ccncc1,3%,3.1,1,.,6,
COc1cccc(-c2nc(CS(=O)(=O)CC(=O)Nc3cc(OC)ccc3OC)c(C)o2)c1,.,1.6,-1,.,.,
N#Cc1c(-c2ccccc2)ccn(Cc2ccc(Cl)cc2)c1=O,-1%,0.3,-6,-23,3,
CC1Cc2ccccc2N1C(=O)C1CCN(S(=O)(=O)c2cccs2)CC1 (stereo unspecified),3%,0.5,-3,-40,-1,
CCn1nc(C)c(NC(=O)CCCSc2nc(-c3ccco3)cc(C(F)(F)F)n2)c1C,6%,2.5,28,-9,4,
CCc1nnc(NS(=O)(=O)c2ccc(NC(=O)c3ccc(S(=O)(=O)N(CC)CC)cc3)cc2)s1,.,-0.2,?,.,.,
CCN(CC(=O)NCc1cccs1)c1ccc(S(=O)(=O)N2CCCC2)cn1,-12%,0.1,-8,.,16,
Cc1ccc2c(c1)NC(C(C)(C)C)CO2 (stereo unspecified),0%,-0.8,-15,-5,-1,
Cc1ccc(C(=O)c2c3ccc([N+](=O)[O-])cc3[n+]([O-])n2CCCC(N)=O)cc1,.,9.6,94,.,.,
CS(=O)(=O)N(Cc1ccccc1Cl)c1ccc(C(=O)NCc2ccccn2)cc1,-32%,-0.8,-8,-21,-10,
O=C(/C=C/c1cccnc1)c1ccc(O)cc1,0%,0.1,.,.,.,
Cc1ccc(-c2noc(-c3c(C)noc3C)n2)cc1,-12%,1.9,3,.,.,
O=C1C(Cl)=C(NCC2CCCO2)C(=O)N1C1CCCCC1 (stereo unspecified),-11%,.,-9,2,-6,Arbovirus inh repeat=-1
C[C@H]1CCC[C@]2(O[C@H](CCO)C[C@@H](O)[C@@H]2O)O1,-6%,-3.8,-4,.,.,
O=C(c1sc2ccccc2c1Cl)N1CCN(c2ccccc2F)CC1,7%,27,4,-24,-6,
COc1ccc(CCNC(=O)CSc2ccc3ccccc3c2)cc1OC,-2%,18,6,17,1,
CC(C)(C)c1ccc(Cn2nnc3c(=O)[nH]c(C4CCCN(C(=O)c5cccs5)C4)nc32)cc1 (stereo unspecified),.,0.6,55,.,.,
COc1ccc(C(=S)N2CCCCC2)cc1Br,4%,1.6,-9,.,5,
Cc1cc(NC(=O)CSc2nnnn2C2CCCC2)no1,-3%,-1.9,0,-41,3,
CCC(NS(=O)(=O)c1c(C)[nH]c(=O)[nH]c1=O)C12CC3CC(CC(C3)C1)C2 (stereo unspecified),-10%,7.3,8,-19,7,
CS(=O)(=O)N(CC(=O)Nc1ccc(Cl)c(Cl)c1)C1CCCCC1,-5%,6.9,0,-4,-14,
O=C(NCc1ccc2c(c1)OCO2)c1nc(S(=O)(=O)Cc2ccccc2F)ncc1Cl,.,37*,-1,.,.,
Cc1oc(-c2ccc(-c3ccccc3)cc2)nc1CN(CCO)C(C)C,.,0.8,1,.,.,
O=C(NC1CCCN(CCc2ccccc2)C1)C1CCCC1 (stereo unspecified),.,-4.1,-5,.,.,
CC(=O)Nc1nc(-c2ccc(Br)s2)cs1,0%,-1.5,36,-22,-3,
# Next part:
SMILES,Mtb growth,RecA intein inh,Mtb betalactam,YopH inh,Arbovirus inh,others
CCc1ccc(CN(C)C(=O)c2cc(COc3cccc4cnccc34)on2)cc1,.,2.4,52,.,.,
O=C(Nc1ccc(NC(=O)c2ccccc2Br)cc1)c1ccccc1,.,-0.5,-2,.,.,
CCOC(=O)N1CCC(NC(=O)C2CCCN(C(=O)N3CCOc4ccccc43)C2)CC1 (stereo unspecified),-7%,1.3,-7,-19,3,
CCCS(=O)(=O)N1CCC(C(=O)NCCN(C)Cc2ccccc2)CC1,-12%,-0.9,-5,-24,5,
CCOc1ccc2c(c1)sc(=NC(=O)C1CC1)n2C,1%,1.4,4,-7,-8,
COc1ccc(OC)c(/C=C2\SC(=S)N(NS(=O)(=O)c3ccc(C)cc3)C2=O)c1,.,-0.4,-6,.,.,
O=C(Cc1ccc(Cl)cc1)NC1CCS(=O)(=O)C1 (stereo unspecified),.,0.4,1,.,.,
CCC(C)[C@H](NC(=O)C1CC(=O)N(c2ccc3c(c2)OCCO3)C1)C(=O)NC1CCCC1 (stereo partly specified),.,-0.7,2,.,.,
COc1ccc(OCc2nnc(SCC(=O)N3CCCCC3)o2)cc1,.,0.7,0,.,.,
CCC(C)N(C(=O)CSc1nnc(C)n1C)C1CCS(=O)(=O)C1 (stereo unspecified),.,-1.3,-4,.,.,
Cc1cc(C)cc(-n2ncc3c2CCCC3NC(=O)CCCn2cncn2)c1 (stereo unspecified),.,5.4,-16,.,.,
COc1ccc(CNC(=O)c2cccc3c2C(=O)N(CC2CCCO2)C3)cc1 (stereo unspecified),.,1.2,7,.,.,
CCOC(=O)/C(C#N)=C/c1cn(CCOc2ccc(OC)cc2)c2ccccc12,13%,-2.5,2,4,8,
COC(=O)c1ccsc1NC(=O)c1ccc2c(c1)OCCO2,8%,3.0,-2,.,13,Arbovirus inh repeat=11
COC(=O)c1[nH]c2ccc(C)cc2c1NS(=O)(=O)c1ccc(F)c(C)c1,.,1.3,2,-30,7,
Cn1nnc2c(sc3nc(N4CCOCC4)c4c(c32)CCCC4)c1=O,-4%,-1.0,-5,-31,1,
COc1ccc(NS(=O)(=O)c2cccc(NC(=O)CNC(C)=O)c2)cc1,5%,-1.2,-1,.,.,
O=C(CCl)NC1(C(F)(F)F)C(=O)Nc2c1c(=O)[nH]c(=O)n2-c1ccccc1 (stereo unspecified),-12%,-0.2,-5,.,.,
Cc1cccc(-n2c(N)cc(=O)nc2SCC(=O)Nc2nnc(CC(C)C)s2)c1,.,-0.5,.,-29,11,
CC(CNC(=O)c1cccs1)c1ccc([N+](=O)[O-])cc1 (stereo unspecified),-4%,-0.3,4,.,5,
COCCNC(=O)c1cc2c(s1)-c1ccc(Cl)cc1SC2,.,-6.7,-3,.,.,
CCOc1cc(C(=O)Oc2cc(C)[nH]c(=O)c2[N+](=O)[O-])cc(OCC)c1OCC,.,-2.5,-3,.,.,
Cc1cc(C)nc(N/N=C/c2ccccc2OCC(=O)O)n1,.,-6.4,6,.,.,
Cn1c(CCNC(=O)c2cccs2)n[nH]c1=S,-1%,24,-1,-6,-12,
N/C(=N\OC(=O)Oc1ccccc1)c1ccc(Br)cc1,-11%,-0.2,-1,-40,2,
# Next part
SMILES,Mtb growth,RecA intein inh,Mtb betalactam,YopH inh,Arbovirus inh,others
CCOC(=O)n1c(=O)oc2cc(S(=O)(=O)N3CCOCC3)ccc21,2%,0.4,-1,-6,8,
CCn1c(CNC(=O)C2CCCCC2)cc2ccccc21,.,-1.1,3,.,.,
O=C1CC2(CCOCC2)Oc2ccc3ccccc3c21,-6%,1.0,-6,.,.,
CC1=NN(C(=O)COc2ccccc2C)C(O)(c2ccc(Cl)cc2)C1 (stereo unspecified),11%,4.8,-2,7,-18,
CS(=O)(=O)N(CC(=O)N1CCc2ccccc2C1)c1ccc2c(c1)OCO2,0%,-0.3,-8,-18,2,
CNc1nc(N)c([N+](=O)[O-])c(N2CCCCCC2)n1,.,-0.8,-4,.,.,
CC(C)CCNS(=O)(=O)c1cc2c3c(c1)CCN3C(=O)CC2,.,1.6,-4,.,.,
Oc1ccc(/C=N/Nc2ccc3ccccc3c2)c(O)c1,?,7.6,82,.,-30,
CN(C)S(=O)(=O)c1cccc(-c2cn3cccnc3n2)c1,-6%,-7.3,-6,.,3,
O=C(CNC(=O)c1cccnc1)N/N=C/c1cc(Br)c(O)c(Br)c1,.,-0.6,5,.,.,
CCNS(=O)(=O)c1ccc(CCC(=O)Nc2ccccc2)cc1,7%,-0.6,-8,.,1,
COc1ccc(N=Cc2c(O)n(-c3ccc(OC)cc3)c(=O)c3ccccc23)cc1,-13%,-13,8,.,-14,
COC(=O)c1cc(NC(=O)CN(c2cccc(OC)c2)S(=O)(=O)c2ccccc2)ccc1Cl,1%,4.5,-6,-1,3,
O=C(N/N=C/c1ccc([N+](=O)[O-])cc1)c1c[nH]c2ccccc12,1%,0.5,-2,.,3,
Cc1cccc2c(C(=O)O)cc(-c3cccnc3)nc12,-3%,-1.5,-4,.,1,
CC(CC(=O)Nc1ccc(Br)cc1F)S(=O)(=O)c1ccc2c(c1)NC(=O)CO2 (stereo unspecified),.,0.7,1,.,.,
O=C1C2C(C(=O)N1c1ccc3c(c1)OCO3)C1C=CC2C12CC2 (stereo unspecified),-7%,-1.0,-6,-26,-17,
O=C(O)Cn1c(=O)c2c3c(sc2n(Cc2ccc(F)cc2)c1=O)CCCC3,.,0.1,-8,.,.,

# From PubChem BioAssay
